hNpr1 antagonist = antagonists of human natriuretic peptide receptor Npr1 | P16066 | HEK293 hNpr1 GloSensor cGMP, ANP-stimulated luminescence | Potency, µM (titrated, usually from 46.3 µM), for the others: top-dose activity change, negative = inhibition, usual class: inhibitors | hit rate 1.6% among 76,000 | AID 1347048; active = well fitted inhibition curve with a large enough effect; inconclusive = small, poorly fitted or top-dose-only effect; inactive = no such curve, though single readings can be large or run the other way;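 also: nearly all actives have a fitted effect of over 60% in size; nearly all hits also lower the signal before the agonist is added; a reference antagonist and vehicle were the controls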
Target sequence (P16066 whole entry, looked up): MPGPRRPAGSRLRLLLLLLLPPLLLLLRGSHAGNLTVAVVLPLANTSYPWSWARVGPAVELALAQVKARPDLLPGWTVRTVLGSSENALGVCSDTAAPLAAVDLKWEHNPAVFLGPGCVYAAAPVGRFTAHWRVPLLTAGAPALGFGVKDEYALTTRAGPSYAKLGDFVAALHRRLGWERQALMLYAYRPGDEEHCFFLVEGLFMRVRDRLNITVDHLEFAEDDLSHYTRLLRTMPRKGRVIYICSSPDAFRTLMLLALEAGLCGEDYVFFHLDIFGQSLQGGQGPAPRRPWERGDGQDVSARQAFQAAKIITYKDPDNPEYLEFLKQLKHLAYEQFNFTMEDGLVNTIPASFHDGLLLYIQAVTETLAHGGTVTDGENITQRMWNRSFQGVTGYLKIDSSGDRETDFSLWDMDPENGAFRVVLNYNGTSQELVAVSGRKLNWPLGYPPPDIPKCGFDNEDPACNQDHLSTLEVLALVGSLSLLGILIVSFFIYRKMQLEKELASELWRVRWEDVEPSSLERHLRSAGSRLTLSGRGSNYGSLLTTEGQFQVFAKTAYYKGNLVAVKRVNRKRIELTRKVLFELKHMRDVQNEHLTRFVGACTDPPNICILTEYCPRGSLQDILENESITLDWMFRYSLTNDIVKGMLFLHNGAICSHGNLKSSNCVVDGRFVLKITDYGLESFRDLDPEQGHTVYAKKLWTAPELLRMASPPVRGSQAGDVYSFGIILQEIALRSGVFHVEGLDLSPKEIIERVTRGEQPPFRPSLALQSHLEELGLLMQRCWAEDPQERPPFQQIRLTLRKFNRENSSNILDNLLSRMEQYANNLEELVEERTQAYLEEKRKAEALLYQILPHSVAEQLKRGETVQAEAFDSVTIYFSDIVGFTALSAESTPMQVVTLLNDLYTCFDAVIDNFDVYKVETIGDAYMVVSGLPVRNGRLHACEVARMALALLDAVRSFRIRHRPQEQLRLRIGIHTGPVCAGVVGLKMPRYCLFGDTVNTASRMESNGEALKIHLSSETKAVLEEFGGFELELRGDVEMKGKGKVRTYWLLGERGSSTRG
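HEK293 cells stably expressing human Npr1 and cGMP GloSensor pGS-40F, loaded 2 h with 2% GloSensor reagent, given compound 30 min at room temperature. Luminescence read before and 20 min after 0.1 nM hNppA.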
Active calls of the source: *; ? = inconclusive; & = joins results of further samples; [ ] = remark or other dose. % is scaled to controls: 0 for no effect and ±100 for the full control effect; potency is read from the fitted curve at half-maximal effect. Not all compounds are listed, so the mix of outcomes need not match the whole.

SMILES | hNpr1 antagonist
O=C(c1cccs1)N1CCC(Oc2ccccc2)C1 (configuration not stated) | 3%
COc1cccc2c1OCC(C(=O)N1CC(Oc3ccccc3C)C1)C2 (configuration not stated) | 1%
Cc1ccc(S(=O)(=O)Nc2ccc(C)n(CC(=O)NCc3ccc(F)cc3)c2=O)cc1 | 0%
OCC1CCN(c2ccc(-c3nc(CCCc4ccccc4)no3)cn2)CC1 | 13µM*
CC(NC(=O)CN1C(=O)NC2(CCS(=O)(=O)CC2)C1=O)c1ccccc1 (configuration not stated) | 2%
COc1ccccc1N1CCN(C(=O)C[C@@H]2O[C@H](CNS(=O)(=O)c3ccccc3)[C@@H](O)[C@H]2O)CC1 | -2%
O=C(O)c1cc2cn(C3CC3)cc2s1 | -6%
Cc1ncc2c(c1CNC(=O)c1ccc3c(c1)OCO3)CCN(C(=O)c1coc3c1C(=O)CCC3)C2 | 6%
COc1ccc(C(=O)N[C@@H]2CCC[C@@H]2C(=O)N2CCN(c3ccccc3OC)CC2)cc1 | -6%
Cc1noc(C)c1[S+](=O)([O-])N1CCC2(CC1)COc1ccccc1NC2=O | 8%
Cc1nc(C)c(C(=O)N2CCC(Cc3noc(C4CC4)n3)C2)s1 (configuration not stated) | 0%
COCCNc1ccc2nnc(C)n2n1 | 3%
O=C(COc1ccccc1)N[C@H]1CO[C@H]2[C@@H]1OC[C@@H]2n1nnnc1Oc1ccc(-n2ccnc2)cc1 | -1%
CCCn1cc(-c2ccncc2)cc1C(=O)N1CCN(C)CC1 | 1%
CN(C)C[C@@H]1CN(c2ncccn2)C[C@H]1NC(=O)c1ccncn1 | 0%
O=C(O)c1cc(-c2cccc(CO)c2)cc(S(=O)(=O)NC2CCCC2)c1 | 1%
Cc1ccccc1S(=O)(=O)N(C)CC1CCOC1 (configuration not stated) | 3%
CO[C@H]1[C@H](NC(=O)c2ccc(F)cc2)c2ccccc2C12CCNCC2 | 2%
COc1ccc(CNC(=O)c2cc3c(N4CCCC4)nc(C)cn3n2)cc1 | -2%
CNC(=O)CC1CCOC2(CCN(C(=O)Nc3ccc4c(c3)OCCO4)CC2)C1 (configuration not stated) | 1%
CC1(C(=O)NCCN2CCOCC2)CCCc2cnc(NCc3ccccc3)nc21 (configuration not stated) | 0%[70.6 µM]
Cc1cccc(C)c1NC(=O)N1CCC2(CC1)SCC(=O)N2Cc1ccccc1 | -3%
COc1cc(NC(=S)N[C@H]2CO[C@H]3[C@@H]2OC[C@@H]3n2nnnc2-c2cccc(OC)c2)cc(OC)c1 | -1%
COc1ccc(-c2nnc3n2CCN(C(=O)c2ccc(F)cc2)C3)cc1 | -10%
CN1Cc2cccn2CC1CNC(=O)c1cccs1 (configuration not stated) | 4%
CCOCCCNC(=O)C1CCN(c2cnn(CC3CC3)c(=O)c2)C1 (configuration not stated) | -6%
O=C(NCCOc1ccccc1)c1nc2c(o1)CCN(Cc1cccs1)CC2 | 3%[70.6 µM]
CCCc1noc(-c2ccn3c(CNC(=O)Cc4cccc(F)c4)nnc3c2)n1 | 12%
COc1ccc(C(=O)Nc2nc3c(s2)C[C@@H]2[C@](C)(CO)[C@H](O)CC[C@@]2(C)[C@@H]3CC(=O)N2CCC(C)CC2)cc1 | -14%
Cn1c(CNC(=O)c2ccc3nccn3c2)nc2cc(C(F)(F)F)ccc21 | 11µM*
O=C(N[C@H](Cc1ccccc1)C1CC(O)C1)c1cnn(Cc2ccccc2)c1 (some centres not stated) | 5%
CC(C)OCCCNc1ncnc2c1CN(c1ccc(Cl)cc1)C(=O)CN2C | -4%
O=C1[C@@H]2C[C@@H](CN2C(=O)NCc2ccccc2)Oc2ccccc2N1CC1CC1 | -2%[70.6 µM]
CNC(=O)[C@@H]1CN(C(=O)c2ccc(Br)cc2F)C[C@H]1CO | -15%
COc1ccc(C2Cn3nnc(C(=O)N4CCN(C(=O)c5c(F)cccc5F)CC4)c3CO2)cc1 (configuration not stated) | -2%
CCNc1cc(N2CCC(CCC(=O)Nc3ccc(C)cc3C)CC2)ncn1 | 5%

Compounds from the list above that have a thiophene ring, fused or not:
SMILES | hNpr1 antagonist
O=C(c1cccs1)N1CCC(Oc2ccccc2)C1 (configuration not stated) | 3%
O=C(O)c1cc2cn(C3CC3)cc2s1 | -6%
CN1Cc2cccn2CC1CNC(=O)c1cccs1 (configuration not stated) | 4%
O=C(NCCOc1ccccc1)c1nc2c(o1)CCN(Cc1cccs1)CC2 | 3%[70.6 µM]

(further entries)
SMILES | hNpr1 antagonist
CN(Cc1cccnc1)c1nc2c(c(=O)[nH]1)CCN(Cc1ccc(F)c(F)c1)CC2 | 4%
COc1ccc(Nc2cnc3ccc(N4CCOCC4)nn23)cc1 | -4%[70.6 µM]
Cc1ccc(CN2CCc3oc(C)c(C(=O)N4CCC(C(N)=O)CC4)c3C2)cc1 | -4%
CC1(C)C(=O)NC(=O)N1CC(=O)N[C@H](Cc1ccccn1)C1CC(O)C1 (some centres not stated) | 2%
O=C(c1noc(-c2ccc(F)cc2)n1)N1CCN(c2ccccc2F)CC1 | -3%
Cc1nc(-c2c3n(c(=O)n(CC(=O)Nc4cccc(Cl)c4)c2=O)CCCCC3)no1 | -1%
Cc1ncc2n1C(=O)N(C1CCN(Cc3cccnc3)CC1)C2 | 1%&2%[70.6 µM]
CS(=O)(=O)N1CCC(C2CCN(C(=O)CC3=CCCCC3)C2)CC1 (configuration not stated) | -2%
CCN(CC)Cc1cnc2c(C(=O)N3CCCC(COC)C3)cnn2c1 (configuration not stated) | 1%
Cc1nn(CCCNC(=O)C2CCOc3ccccc3C2)c(C)c1Cl (configuration not stated) | 0%
CN(CC1CCOCC1)S(=O)(=O)c1cccc(C(F)(F)F)c1 | 3%
O=C(c1cscn1)N1CCc2n[nH]c(=O)n2CC1 | 5%
O=C(Nc1cc(F)cc(C(F)(F)F)c1)N1CCCOC(Cn2cccn2)C1 (configuration not stated) | 13µM*
COCCC1(N(C)C)CCN(C(=O)CC2CCCCC2)CC1 | -1%
Cn1ccnc1C(=O)N1CC2CC(C1)[C@H]1CCCC(=O)N1C2 (some centres not stated) | 3%
O=S(=O)(N[C@H]1[C@H](O)[C@H](O)C[C@@H]1c1ccccc1)c1ccc(C(F)(F)F)cc1 | 0%[70.6 µM]
COc1ccccc1OCc1cc(C(=O)NCc2cnc(C)cn2)n[nH]1 | 0%
O=C(CN1CC2CC(C1)[C@H]1CCCC(=O)N1C2)N1CCC(Cc2ccccc2)CC1 (some centres not stated) | 7%
COc1ccc(CNC(=O)[C@H]2O[C@H](CCN3CCN(C)CC3)CC[C@@H]2O)cc1 | 8%[70.6 µM]
O=C(NCCc1ccncc1)C1CC(=O)N(c2n[nH]c3ccccc23)C1 (configuration not stated) | -4%
COc1cccc(-n2cc(CN(C)c3nccc(-c4cccnc4)n3)cn2)c1 | -8%
COc1ccc(C(=O)N[C@@H]2CN(c3ncccn3)C[C@H]2CN(C)C)cn1 | 5%
O=C1Nc2ccc(Br)cc2C(=O)N2CCN(C(=O)C3CCNCC3)C[C@H]12 | -4%[70.6 µM]
COc1ccc(CC(=O)N[C@H]2C[C@@H](c3nc(-c4ccc(OC(F)(F)F)cc4)no3)N(C)C2)cc1 | ?
O=c1[nH]c(C2CCCN(Cc3cccs3)C2)nc2ccc(F)cc12 (configuration not stated) | -3%
Cc1cc(=O)n(CC(=O)NCCc2ccc(Cl)cc2)c(N2CCOCC2)n1 | -3%
O=C(c1cc2ccccc2[nH]1)N1CCC(N2CC(OCC3CC3)C23CCOCC3)CC1 (configuration not stated) | -7%
CCN(CC)C1CCN(C(=O)c2cc(OC)ccc2OC2CCN(C(=O)C3CC3)CC2)C1 (configuration not stated) | 7%
COc1cccc(CN2CC[C@@](C)(O)[C@H](N3CCCC3)C2)c1OC | -4%
O=[S+]1([O-])NCC2(CCN(Cc3cccc4ccccc34)CC2)Nc2ccccc21 | 12%
COc1ccc(C(=O)N2CCC[C@H]2c2nc(-c3ccc(C)cc3)no2)cn1 | -13%
O=C(NC1C[C@H]2CC[C@@H](C1)N2C(=O)CCCc1ccccc1)c1ccc(F)cc1 (some centres not stated) | -1%
Cn1ccc(NC(=O)c2ccc(-c3ncc4cnc(-c5ccccc5)cn34)cc2)n1 | -3%[70.6 µM]
Cn1c(CNC(=O)CC[C@H]2NC(=O)c3ccccc3NC2=O)nc2ccccc21 | -2%
O=C(Cn1nc2n(c1=O)CCCCC2)Nc1ccc(Br)cc1 | 1%
O=C1CCCN1Cc1noc(-c2ccccc2)n1 | 0%

3 structures out of the list, ordered by formula weight, low to high:
SMILES | hNpr1 antagonist
Cc1cc(=O)n(CC(=O)NCCc2ccc(Cl)cc2)c(N2CCOCC2)n1 | -3%
Cn1ccc(NC(=O)c2ccc(-c3ncc4cnc(-c5ccccc5)cn34)cc2)n1 | -3%[70.6 µM]
CCN(CC)C1CCN(C(=O)c2cc(OC)ccc2OC2CCN(C(=O)C3CC3)CC2)C1 (configuration not stated) | 7%

Next structures follow:
SMILES | hNpr1 antagonist
O=C(NC1CCN(C(=O)N2CC3CC(C2)[C@H]2CCCC(=O)N2C3)CC1)c1ccsc1 (some centres not stated) | 2%
COc1ccc(CCc2nc3nccc(-c4ccc(OC)cc4F)n3n2)cc1 | -12%
COc1ccc(C(=O)N2CCC3(C2)C(=O)N(CCc2ccccc2)c2ccccc23)cc1 (configuration not stated) | ?
Cc1nc(-c2ccc(F)cc2)n(CC(=O)Nc2cccc(C#N)c2)c(=O)c1CCO | -21%
Cc1ncoc1C(=O)N1Cc2ccccc2OC2(CCN(C)CC2)C1 | -1%
CNC(=O)[C@@H]1CN(C(=O)c2ccc(Cl)cc2OC)C[C@H]1c1nc(C)no1 | 3%
O=C(Nc1ccc(Cl)cc1)N1CCC(N2CCCNC2=O)CC1 | 3%
CCc1noc(-c2cn(C3CCCN(C(=O)c4ccc(F)c(F)c4)C3)nn2)n1 (configuration not stated) | -3%
COc1cccc(N2CCN(C(=O)C3CCN(c4cnc5nccnc5c4)CC3)CC2)c1 | -23%
Nc1nc(C2CC(O)C2)cc(N2CCC(O)(Cn3ccnc3)CC2)n1 (configuration not stated) | -7%
CCOc1cccc(CNC(=O)C2CCCN(c3cnc4nc(C)c(C)nc4c3)C2)c1 (configuration not stated) | 7%
O=C(CN1C(=O)C(c2ccccc2)=NC12CCCCC2)NCc1ccccc1 | 0%
O=C(Nc1ccc(Cl)cc1Cl)c1ccc2cncn2c1 | 11%[70.6 µM]
CCn1nc(-c2ccccc2SC)nc1N(C)C | 0%
CCOc1ccc(C(=O)NC2CCN(c3cc(-c4ccccc4)[nH]n3)C2)cc1 (configuration not stated) | -1%
Cc1ncsc1C(=O)N1CCOC(CCCC(C)C)C1 (configuration not stated) | 0%
N#Cc1cccc(C(=O)N2CCCCCCNC(=O)[C@@H]3C[C@@H](c4nc(-c5cccnc5)no4)C[C@@H]32)c1 | 1%
N#Cc1ccc(C(=O)N2CCCCCCNC(=O)[C@@H]3C[C@@H](c4nc(Cc5ccccc5)no4)C[C@@H]32)cc1 | 3%
C[C@@]1(O)CCN(Cc2cc(=O)n3[nH]cnc3n2)C[C@@H]1O | 0%
CCCC(C)N1CC2(CCN(C(=O)Cn3nc(C)cc3C)CC2)OC1=O (configuration not stated) | 6%
O=C(CCc1nc2ccccc2c(=O)[nH]1)NC1CCCc2c1[nH]c1c(Cl)cccc21 (configuration not stated) | -4%
CS(=O)(=O)c1ccc(CN2CCOC(c3cccnc3)C2)cc1 (configuration not stated) | 2%
O=c1ccc(CN2CCOCC2)cn1CC1CC1 | 0%
O=C(Nc1ccccc1F)N1CCC(CCNC(=O)C2(c3ccccc3)CC2)CC1 | -9%

Grouped by structure: those above with bromine
SMILES | hNpr1 antagonist
CNC(=O)[C@@H]1CN(C(=O)c2ccc(Br)cc2F)C[C@H]1CO | -15%
O=C1Nc2ccc(Br)cc2C(=O)N2CCN(C(=O)C3CCNCC3)C[C@H]12 | -4%[70.6 µM]
O=C(Cn1nc2n(c1=O)CCCCC2)Nc1ccc(Br)cc1 | 1%

(listing goes on)
SMILES | hNpr1 antagonist
COCCn1ncc(N2CCC(C(=O)N3CCC(C(N)=O)(N4CCCCC4)CC3)C2)cc1=O (configuration not stated) | 3%
COc1ccc(CN[C@H]2[C@H](O)[C@@H](N3CCN(C(C)=O)CC3)[C@@H]3OC[C@H]2O3)cc1 | 7%[70.6 µM]
O=C(CCC1CCCC1)NCCc1noc(C2CC2)n1 | 5%
CN(C)C(=O)c1nc(-c2cccnc2)c2ccccn12 | 1%[70.6 µM]
CN(C)[C@@H]1CN(C(=O)c2ccsc2)CC[C@@H]1CO | 8%
COc1cc(OC)c(-c2nc3ccc(-c4ccc(OC)c(OC)c4OC)cc3o2)cc1OC | -21%
CCOc1ccc(NC(=O)Cn2ccn3nc4c(c3c2=O)CCCC4)cc1 | -6%
COc1ccc(NC(=O)c2ccc3c(c2)NC(C)(CNc2ccccc2)CO3)cc1OC (configuration not stated) | -4%[70.6 µM]
CN1CCCCCCN(C(=O)NCCc2ccccc2)[C@H]2CCC[C@H]2C1=O | -18%
Cc1ccc(C(=O)NCC(=O)N2CCCCCNC(=O)CC2c2ccccc2)cn1 (configuration not stated) | 0%
COc1ccccc1N1CCN([C@@H]2[C@H](O)[C@H](CO)O[C@@H]2CNC2CCCCC2)CC1 | 5%
COCCC1(CO)CCCN(C(=O)Cn2cc(C)c(=O)[nH]c2=O)C1 (configuration not stated) | 10%
C=CCN1CC2(CCC1=O)CCN(C(=O)[C@@H]1C[C@H]1c1ccccc1)CC2 | 16%
COc1ccc(C(=O)N2CCCOCCNC(=O)[C@@H]3CCCC[C@@H]32)cc1F | 2%
N#Cc1cccc(NC(=O)Cn2cccc2-c2nc(-c3ccccc3)no2)c1 | -11%
CCOCCC(=O)N1CC[C@@H]2[C@@H](CCC(=O)N2CCc2ccccn2)C1 | -1%
